VDR inh: inhibitors of human vitamin D receptor | P11473 | actives 0.93% (n = 400,000) | VDR-SRC2-3 peptide fluorescence polarization, 2 h | Potency, µM, for the others: max response, negative = inhibition, usual class: inhibitors; active = well fitted inhibition curve with a large enough effect; inconclusive = small, poorly fitted or top-dose-only effect, or another doubt; inactive = no such curve, though single readings can be large or run the other way; note: series mostly up to about 120 µM
Target sequence (P11473 whole entry, looked up): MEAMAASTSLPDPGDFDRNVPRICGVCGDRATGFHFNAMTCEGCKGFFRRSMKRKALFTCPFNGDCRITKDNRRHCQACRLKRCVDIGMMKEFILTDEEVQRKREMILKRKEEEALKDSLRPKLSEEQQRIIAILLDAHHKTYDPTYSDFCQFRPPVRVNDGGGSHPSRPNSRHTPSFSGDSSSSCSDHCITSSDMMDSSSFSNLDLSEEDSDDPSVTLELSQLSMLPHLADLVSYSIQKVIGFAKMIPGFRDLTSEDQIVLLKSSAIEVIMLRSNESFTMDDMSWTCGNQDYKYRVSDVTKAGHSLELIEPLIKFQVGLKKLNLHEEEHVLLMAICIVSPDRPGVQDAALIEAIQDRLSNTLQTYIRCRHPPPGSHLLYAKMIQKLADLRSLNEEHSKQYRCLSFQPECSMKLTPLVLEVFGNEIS
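FP read-out; VDR + SRC2-3 coactivator peptide; 23 nl compound by pintool; 2 h RT incubation; reagents held at 4 deg C, protected from light.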
* = called active by the depositor; ? = inconclusive; & = joins results of further samples. % is set by controls: 0 for no effect and ±100 for the full control effect; potency is the fitted concentration of half-maximal effect.

VDR inh	smiles
14.7%	Clc1nnc(N/N=C/c2ccccc2)c2ccccc12
14.4%	Cc1occc1C(=O)N/N=C/c1ccc(-c2ccccc2)cc1
7.3%	Cc1ccc(S(=O)(=O)N2CCC(C(=O)NC3CCCCC3C)CC2)cc1 (configuration not stated)
-21.8%	Cn1c(Cn2c(=O)sc3ccccc32)nnc1SCc1ccccc1
-10.8%	COc1ccc(NC(=O)c2ccc(NCCN3C(=O)CCC3=O)c([N+](=O)[O-])c2)cc1
-13.5%	Cc1ccc(-c2cc(NC(=O)c3ccccc3[N+](=O)[O-])n[nH]2)cc1
-10.1%	O=C(O)CCNC(=O)c1ccc(NC(=O)Cc2ccc(Cl)cc2)cc1
21.1%	CCCN1CCN(c2ncnc3sc(C(=O)Nc4ccc(N(CC)CC)cc4C)c(C)c23)CC1
-12.9%	COc1ccc(CN2C(=O)c3ccccc3C2C(=O)NC2CCC(C)CC2)c(OC)c1 (configuration not stated)
1.9%	O=C(Nc1ccc2c(c1)CCC2)c1cc(S(=O)(=O)Nc2ccc(F)cc2)c(Cl)cc1Cl
6.6%	CN(C(=O)c1cccnc1)c1nnc(-c2cccnc2)s1
-25.4%	C=CCCN(C(C)C(=O)OC)S(=O)(=O)c1ccccc1Br (configuration not stated)
11.6%	Cc1cccc(C(=O)N[C@H](C(=O)Nc2cccc(S(=O)(=O)N3CCCC3)c2)C(C)C)c1
4.0%	Cc1ccsc1-c1nc(CN(C)C(C2CC2)C2CC2)c(C)o1
4.3%	COc1cc(-c2nnc(Cn3cc(C(F)(F)F)ccc3=O)o2)cc(OC)c1OC
0.5%	O=c1[nH]ncc(N2CCN(Cc3ccccc3)CC2)c1Cl
?	COc1cc(/C=C2/C(=N)N3C(=NC2=O)SN=C3S(=O)(=O)C(C)C)ccc1OC(=O)c1ccco1
-16.6%	COc1ccccc1COC(=O)c1ccc(S(=O)(=O)N2CCOCC2)cc1
6.2%	O=C(Nc1ccc(N2CCOCC2)cc1)NC1CCCCC1
2.8%	O=c1cc(N2CCCC2)c(-c2ccccc2)n[nH]1
-5.6%	CNc1ccc(Br)cc1C(O)c1ccccc1 (configuration not stated)
13.4%	O=C(Cc1ccc(-n2c(=O)[nH]c3ccccc3c2=O)cc1)N1CCN(c2ccccc2)CC1
0.7%	CCN1CCN(CCCNC(=O)c2ccc3c(c2)N(Cc2ccccc2)CCS3)CC1
14.1%	Cn1c(SCC(=O)N2CCN(c3ccccc3)CC2)nnc1-c1cc2ccccc2o1
-14.4%	N#Cc1ccc(NC(=O)COCc2cc(-c3ccc(F)cc3)on2)cc1
11.7%	CCN(CC)S(=O)(=O)c1ccc2c(c1)N(CC(=O)N1CCN(c3ccc(OC)cc3)CC1)C(=O)CO2
-17.7%	Cc1cc(Cl)ccc1OCC(=O)NNC(=O)c1ccco1
0.8%	COc1cccc(Cn2c(=O)cnc3cnc(N4CCOCC4)nc32)c1
-14.0%	COc1ccc(CN(C(=O)c2snc(C(N)=O)c2N)C(CC(C)C)C(=O)NC2CCCCC2)cc1 (configuration not stated)
2.4%	C=CCc1cc(OC)c(O)c(C(=O)NCCO)c1

Arranged by number of heavy atoms (falling): some entries from above.
VDR inh	smiles
11.6%	Cc1cccc(C(=O)N[C@H](C(=O)Nc2cccc(S(=O)(=O)N3CCCC3)c2)C(C)C)c1
-13.5%	Cc1ccc(-c2cc(NC(=O)c3ccccc3[N+](=O)[O-])n[nH]2)cc1
-25.4%	C=CCCN(C(C)C(=O)OC)S(=O)(=O)c1ccccc1Br (configuration not stated)

Following part
VDR inh	smiles
-7.1%	COc1ccc(C(=O)Nc2ccc3oc(-c4cccc(Cl)c4)cc(=O)c3c2O)cc1
6.3%	CC(C)(/C=N/NC(=O)CSCc1ccc(Cl)cc1)CCC#N
-5.1%	CC(C)(C)c1nn2cnnc2n(/N=C/c2cccc3ccccc23)c1=O
5.1%	Cc1nn(CC(=O)NCCCN2CCCC2)c(=O)c2nn(-c3ccccc3)c(C)c12
?	Cc1ccc(N=Cc2cc(Cl)cc(Cl)c2O)nc1
-2.8%	COCCn1nnnc1C(c1ccccc1)N1CCN(c2ccccc2)CC1 (configuration not stated)
-9.3%	CCCN(C(=O)c1cccc(-n2cccc2)c1)c1c(N)n(Cc2ccccc2)c(=O)[nH]c1=O
7.2%	Nc1ccc(C#Cc2ccccc2)cc1
-0.6%	Cc1ccc(C(=O)N/N=C/c2cn(Cc3ccccc3)c3ccccc23)cn1
-5.2%	CCNC(=S)N1CCN(CC)CC1
-2.9%	Cn1c(=O)n(C)c2cc(C(=O)Nc3ccc4c(c3)OCO4)ccc21
0.6%	COc1ccccc1C(CNC(=O)c1cccc(S(=O)(=O)Nc2ccc(C)cc2)c1)N1CCCC1 (configuration not stated)
-19.2%	Cc1c(CCOC(=O)CC23CC4CC(CC(C4)C2)C3)sc[n+]1CC(=O)c1ccc(Br)cc1
2.7%	O=C1CSC2=NCN(c3ccccc3)CN12
1.7%	Clc1ccc(OCc2nn3c(C4CCCCC4)nnc3s2)c(Cl)c1
12.7%	CCOC(=O)c1cc(S(=O)(=O)Nc2cc(OC)ccc2OC)[nH]n1
-4.6%	Fc1ccc(N2CCN(C(c3cccs3)c3nnnn3CCc3ccccc3)CC2)cc1 (configuration not stated)
-16.0%	COc1cc(CC(=O)Nc2ncc(C)s2)cc(OC)c1OC
-26.0%	CCOC(=O)CSCC(=O)N1N=C(c2cccs2)CC1c1ccc(F)cc1 (configuration not stated)
-8.8%	O=C(c1ccccn1)c1ncc(C(F)(F)F)cc1Cl
-0.6%	COc1cc(C(=S)N2CCOCC2)cc(Br)c1OS(=O)(=O)c1ccccc1
-7.3%	COc1cccc([C@@H]2Oc3ccc(Br)cc3C[C@H]2OC(=O)NS(=O)(=O)c2ccc(F)cc2)c1
?	Fc1ccc(C2CC(c3cccs3)=NN2C(=S)Nc2ccccc2)cc1 (configuration not stated)
-3.7%	CC(=O)Nc1nc(N(C)C)nc(N(C)C)n1
5.4%	O=C(NCCCN1CCN(c2cccc(Cl)c2)CC1)C1(S(=O)(=O)c2ccc(Cl)cc2)CC1
15.8%	COC(=O)c1ccc(OCC2c3cc(OC)c(OC)cc3CCN2C(=O)c2ccccc2F)cc1 (configuration not stated)
-20.5%	Cc1oc2ccc(O)cc2c1C(=O)c1ccc(Cl)cc1
-11.3%	COC(=O)c1cccc(/C=N/NC(N)=S)c1O
17.8%	CC(=O)c1c(C)[nH]c(C(=O)COc2ccc3c(C)cc(=O)oc3c2)c1C
-11.0%	COc1ccccc1-c1noc(-c2ccc(N(C)Cc3ccccc3)c([N+](=O)[O-])c2)n1

By substructure, the entries above with bromine
VDR inh	smiles
-25.4%	C=CCCN(C(C)C(=O)OC)S(=O)(=O)c1ccccc1Br (configuration not stated)
-5.6%	CNc1ccc(Br)cc1C(O)c1ccccc1 (configuration not stated)
-19.2%	Cc1c(CCOC(=O)CC23CC4CC(CC(C4)C2)C3)sc[n+]1CC(=O)c1ccc(Br)cc1
-0.6%	COc1cc(C(=S)N2CCOCC2)cc(Br)c1OS(=O)(=O)c1ccccc1
-7.3%	COc1cccc([C@@H]2Oc3ccc(Br)cc3C[C@H]2OC(=O)NS(=O)(=O)c2ccc(F)cc2)c1

(cont.)
VDR inh	smiles
-6.0%	COc1ccc(CCNCc2cc3ccc(C)cc3[nH]c2=O)cc1OC
-2.6%	CC1Cc2ccccc2N1C(=O)CO/N=C/c1ccc(OC(F)F)cc1 (configuration not stated)
2.6%	O=C(O/N=C1\CCCc2ccccc21)c1cccc(Cl)c1
2.9%&-6.4%&0.2%&3.9%	Nc1ncnc2c1c(I)cn2C1OC(CO)C(O)C1O (configuration not stated)
-10.5%	COc1ccc(Cl)cc1NC(=S)NCCN1CCOCC1
-4.1%	O=C(CCc1ccccn1)N1CCCC(Nc2cccc(F)c2)C1 (configuration not stated)
-9.7%	COc1ccc(NC(=O)c2ccc3c(=O)n4c(nc3c2)CCCCC4)cc1
?	CCC(C)C1NC(=O)C(CCNCS(=O)(=O)O)NC(=O)C(NC(=O)C(CCNCS(=O)(=O)O)NC(=O)C(NC(=O)C(CCNCS(=O)(=O)O)NC(=O)CCCCC(C)C)C(C)O)CCNC(=O)C(C(C)O)NC(=O)C(CCNCS(=O)(=O)O)NC(=O)C(CCNCS(=O)(=O)O)NC(=O)C(C(C)CC)NC1=O (configuration not stated)
-20.8%	CC1(C)CC(NC(=O)C23CCC(C)(C(=O)C2)C3(C)C)CC(C)(C)N1 (configuration not stated)
26.1%	Cc1ccc(C(=O)C(C)OC(=O)CCN=C2NS(=O)(=O)c3ccccc32)cc1 (configuration not stated)
-0.5%	COc1cccc(-n2cc(C(=O)Oc3cccc(C(F)(F)F)c3)c3ccccc3c2=O)c1
11.2%	C=CCOC(=O)N[C@H](c1ccccc1)C(C(C)=O)C(C)=O
-17.3%	Clc1ccc2[nH]c3c(c2c1)CNCC3
-6.6%	NS(=O)(=O)c1ccc(NC(=O)CCC(=O)c2ccc(Cl)s2)cc1
13.5%	CCN(CCCNC(=O)c1cn(CC)c2ccc(S(=O)(=O)N(C)C)cc2c1=O)c1cccc(C)c1
-18.2%	CC(Sc1nnc(Nc2ccccc2)s1)C(=O)Nc1nc(-c2ccccc2)cs1 (configuration not stated)
-11.1%	O=C(Nc1ccc(N2CCN(C(=O)c3ccco3)CC2)cc1)c1ccc2c(c1)OCO2
-12.2%	COc1ccc(S(=O)(=O)NCCC(=O)OCC(=O)c2ccc[nH]2)cc1[N+](=O)[O-]
-4.0%	CCc1ccc(Nc2ccc(S(=O)(=O)N3CCOCC3)cc2[N+](=O)[O-])cc1
3.0%	Cc1cccc(NC(=O)C2CCCN2S(=O)(=O)c2ccc(F)cc2)c1C (configuration not stated)
-21.8%	CCC(C(=O)NC1CCCC1)N(C(=O)Cn1nnc(-c2ccc(OC)c(OC)c2)n1)c1cccc(O)c1 (configuration not stated)
-3.9%	O=S(=O)(Nn1cnnc1)c1ccccc1Cl
-8.5%	O=C(Cn1ncc2c3ccccc3n(Cc3ccc(Cl)cc3)c2c1=O)NCc1cccs1
0.7%	COc1ccc(S(=O)(=O)N2CCC(C(=O)NCc3ccccn3)CC2)cc1C
14.9%	COc1cc(C(=O)Nc2ccc3c(c2)N(C2CCCC2)C(=O)c2ccccc2S3)cc(OC)c1OC
-6.1%	COc1ccc(NC(=O)Cn2c(=O)n(-c3ccc(C)cc3)c(=O)c3c2cnn3C)cc1
-8.3%	O=C(NCC1CCCO1)c1cccc(S(=O)(=O)N2CCCCC2)c1 (configuration not stated)
-11.7%	CCC(C)(C)c1ccc(Oc2cccc(C(=O)O)c2)cc1
-2.6%	Cc1cc(C)nc(-n2nc(C)c(Oc3ccccc3O)c2C)n1
7.3%	COc1ccc(-c2c(-c3cc(OC)c(OC)c(OC)c3)noc2C)cn1

3 compounds already listed, sorted by their value in VDR inh, largest number first.
VDR inh	smiles
0.7%	COc1ccc(S(=O)(=O)N2CCC(C(=O)NCc3ccccn3)CC2)cc1C
-8.5%	O=C(Cn1ncc2c3ccccc3n(Cc3ccc(Cl)cc3)c2c1=O)NCc1cccs1
-11.7%	CCC(C)(C)c1ccc(Oc2cccc(C(=O)O)c2)cc1

(next part)
VDR inh	smiles
-5.0%	Cc1ccc(S(=O)(=O)NCCC(=O)N2CCCCCCC2)cc1C
0.6%	O=C(Cc1ccc(Br)cc1)NNC(=O)c1cccs1
-1.0%	CCN1C(=O)/C(=C2\C=Cc3ccccc3N2CC)OC1=S
20µM*	CCOc1cc(/C=C2\N=C(C)OC2=O)cc(Br)c1OCC(=O)OC
-8.2%	CC1CN(C(=O)c2cc(S(=O)(=O)N(C)c3ccc(F)cc3)ccc2Cl)CC(C)O1 (configuration not stated)
-11.4%	O=c1[nH]c2ccsc2c(=O)n1CCO
-4.7%	CCOC(=O)c1ccc(-n2c(C)ccc2C)cc1
-18.2%	CCN(CCCNC(=O)c1nn(C)c2c1CS(=O)(=O)c1ccccc1-2)Cc1ccccc1
-12.6%	Cc1ccc(S(=O)(=O)N(C)C)cc1NC(=S)NC(C)CCC(C)C (configuration not stated)
5.1%	CCN1C(=O)/C(=C2\Sc3ccccc3N2CC)OC1=S
11.6%	O=C(Nc1ccccc1-c1ccccc1)c1ccccc1Br
6.4%	O=[N+]([O-])c1cccc(P(=O)(O)c2cccc([N+](=O)[O-])c2)c1
13.2%	COc1ccc(-n2nccc2-c2nn(-c3cccc(OC)c3)c(=O)n(C)c2=O)cc1
-8.0%	CCOc1ccc(OCC)c(NC(=O)CCS(=O)(=O)c2ccc(Br)s2)c1
-0.9%	c1ccc(-c2noc(CN3CCCC(OCc4ccccn4)C3)n2)cc1 (configuration not stated)
11.8%	CCOc1ccc(OCC(=O)OCC(=O)NNC(=O)c2ccc([N+](=O)[O-])cc2)cc1
-5.7%	CCN(CC)CCNC(=O)c1ccc(N2CCCCC2)c(NS(=O)(=O)c2ccc(C)cc2)c1
-27.7%	CCc1cccc(CC)c1NC(=S)/C(=C(\[O-])c1ccc(Cl)s1)[n+]1ccccc1
?	CC1CCCCN1C(=O)Cn1cnc2cc([N+](=O)[O-])ccc2c1=O (configuration not stated)
2.3%	c1ccc(-c2nnc(CN3CCCCC3)o2)cc1
15.4%	COc1ccc(S(=O)(=O)N2CCCOC2CNC(=O)C(=O)NCCCN2CCOCC2)cc1C (configuration not stated)
5.6%	COc1cccc(-c2cc3onc(-c4ccccc4)c3c(=O)n2C)c1
-16.7%	O=C(Nc1sc2c(c1C(=O)O)CCCC2)c1ccc(Cl)cc1
-11.2%	Cn1cccc1C(=O)NC(=O)COC(=O)c1cc(S(=O)(=O)N2CCCCC2)ccc1Cl
-5.3%	COc1cc(C)ccc1OCCSc1nc2ccc(NC(=O)c3ccc4c(c3)OCO4)cc2s1
-9.1%	CCNC1=C(Cl)C(=O)c2ccccc2C1=O
5.7%	CCCc1nn2c(=O)cc(COC(=O)c3ccccc3NC(=O)C3CCCCC3)nc2s1
-2.3%	CN(Cc1ccccc1)C(=O)CN1C(=O)c2ccccc2S1(=O)=O
2.1%	Cc1ccc(S(=O)(=O)N2c3ccccc3NC(=O)CC2C)cc1 (configuration not stated)
4.0%	Cc1ccc(S(=O)(=O)N/N=C/c2cc(Br)c(C)o2)cc1

Screening results (PubChem)

Only part of the results is shown. The share of hits here may be higher or lower than overall.
